Source: PubChem (National Center for Advancing Translational Sciences (NCATS))
Rango-impB inh: qHTS Assay for Inhibitors of Rango (Ran-regulated importin-beta cargo) - Importin beta complex formation | Importin subunit beta-1 (Homo sapiens), Q14974 | Rango CFP/YFP FRET sensor + importin beta, 45 min | Potency, µM (titrated, usually from 92.2 µM), without a hit: top-dose inhibition of complex formation | 340,000 tested, 0.031% active | AID 540263, 2011; active = rising FRET ratio curve, often small or poorly fitted; inconclusive = mostly compound fluorescence or quenching in the first reads; inactive = flat curves in all reads;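 further: potency means the concentration at half of the fitted maximal effect; 0% = DMSO wells and 100% = buffer wells lacking importin beta; nearly all actives have a fitted effect of over 15% in size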
Target sequence (Q14974 whole entry, looked up): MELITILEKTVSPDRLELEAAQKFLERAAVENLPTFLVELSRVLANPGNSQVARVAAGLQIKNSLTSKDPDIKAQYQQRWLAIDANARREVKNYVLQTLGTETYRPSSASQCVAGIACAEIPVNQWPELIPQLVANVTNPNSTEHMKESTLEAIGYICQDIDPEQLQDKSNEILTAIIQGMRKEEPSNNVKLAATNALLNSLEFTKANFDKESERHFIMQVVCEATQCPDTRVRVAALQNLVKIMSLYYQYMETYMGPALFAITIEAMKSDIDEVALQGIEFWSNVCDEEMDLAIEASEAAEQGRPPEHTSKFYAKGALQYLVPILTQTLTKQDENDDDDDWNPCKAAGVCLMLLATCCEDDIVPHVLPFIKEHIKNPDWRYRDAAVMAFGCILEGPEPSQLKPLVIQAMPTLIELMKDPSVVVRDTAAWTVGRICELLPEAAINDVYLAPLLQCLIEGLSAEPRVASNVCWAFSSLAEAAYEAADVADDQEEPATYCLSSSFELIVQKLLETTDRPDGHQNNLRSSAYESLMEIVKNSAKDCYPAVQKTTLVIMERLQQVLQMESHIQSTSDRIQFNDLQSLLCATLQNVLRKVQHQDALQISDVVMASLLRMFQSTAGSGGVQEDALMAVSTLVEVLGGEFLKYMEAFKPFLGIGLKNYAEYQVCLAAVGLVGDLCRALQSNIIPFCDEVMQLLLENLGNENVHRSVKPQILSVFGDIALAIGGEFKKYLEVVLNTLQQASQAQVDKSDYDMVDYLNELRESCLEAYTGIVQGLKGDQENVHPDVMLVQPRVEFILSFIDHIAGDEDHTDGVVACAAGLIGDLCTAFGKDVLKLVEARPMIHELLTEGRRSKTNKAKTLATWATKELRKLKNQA
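FRET biosensor Rango (snurportin 1 IBB between N-terminal EYFP and C-terminal Cerulean), 50 nM in PBS/1 mM DTT/0.02% Tween-20/0.1% BSA, preincubated 5 min RT with compound; 0.125 microM importin beta added, 45 min RT, CFP/YFP FRET ratio read.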
Rango dissoc inh: qHTS Assay for Inhibitors of RanGTP induced Rango (Ran-regulated importin-beta cargo) - Importin beta complex dissociation; Snurportin-1 (Homo sapiens) + GTP-binding nuclear protein Ran (Homo sapiens) + Importin …; Biochemical FRET Rango-importin beta, RanGTP-induced dissociation; Potency, µM (highest dose often 46.1 µM), for the others: at the top dose activity change, negative = inhibition; 340,000 tested, 0.071% active; AID 540253, 2011; active means falling FRET ratio curve, often poorly fitted, with flat reads before Ran was added; inconclusive means other falling curves, or compound fluorescence or quenching; inactive means flat or rising ratio curve;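 further: potency means the concentration at half of the fitted maximal effect; % of control where 0% means no effect; nearly all actives have a fitted effect of over 45% in size; -100% = wells without RanGTP and RCC1; the record marks most hits as doubtful in a second field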
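Compounds preincubate 5 min with complex of recombinant Rango and importin beta in PBS with 1 mM DTT. Ran (0.6 uM) loaded with 2 mM GTP plus 0.2 uM RCC1 starts dissociation; FRET is recorded 45 min later.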
miR-21 FLuc: qHTS Assay for Modulators of miRNAs and/orActivators of miR-21; Potency, µM (top dose mostly 38.3 µM), without a hit: at the top dose reporter change, positive = more light; HeLa miR-21 FLuc reporter, luciferase, 48 h; AID 2288, 2010; 340,000 tested, under 10 active; active = well fitted rising curve with a large enough effect; inconclusive = small, poorly fitted or top-dose-only effect; inactive = no such curve, though single readings can be large or run the other way;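 further: % of control where 0% means no effect; miR-21 action dims this reporter so a rising signal means less miR-21 action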
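Using DMEM plus 10% FBS, HeLa miR-21-FLuc cells are incubated with test compounds (final up to about 40uM) for 48 hours; firefly luciferase signal is then imaged following reagent-mediated lysis.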
GLA inh pH 4.5: qHTS Assay for Inhibitors of Human alpha-Galactosidase at pH 4.5; Alpha-galactosidase A (Homo sapiens), P06280; purified enzyme, 4-MU-alpha-Gal fluorescence, pH 4.5; activity change, negative = inhibition, % at 105 µM; 230,000 tested, under 10 active; AID 1467, 2008; inconclusive = small, poorly fitted or top-dose-only inhibition, or a rising curve; inactive = flat fitted curve, though single readings scatter; no compound was filed as active;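 further: 0% = full activity with enzyme and -100% = basal without enzyme; dose as in the result columns while the protocol names 77 µM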
An asterisk follows results filed as active; & = joins results of further samples. Only part of the results is shown; count on the stated rates, not on these rows.

For Cn1cccc1C1C(C#N)=C(N)OC2=C1C(=O)CCC2 (stereo unspecified) the results were Rango-impB inh inconclusive, Rango dissoc inh -11%, miR-21 FLuc 4% and GLA inh pH 4.5 -1.
Screening Cc1ccc(C)c(NC(=O)Cn2c([N+](=O)[O-])cnc2C)c1 returned Rango-impB inh 0.2%, Rango dissoc inh 1%, miR-21 FLuc 3% and GLA inh pH 4.5 4.
Brc1ccc(-c2nn3c(-c4ccco4)nnc3s2)o1 was read as Rango-impB inh inconclusive, Rango dissoc inh -1%, miR-21 FLuc -24% and GLA inh pH 4.5 10.
Cc1cc(C(=O)NNS(=O)(=O)c2ccccc2C(F)(F)F)nn1C(C)(C)C was read as Rango-impB inh 1.0%, Rango dissoc inh -6%, miR-21 FLuc 0% and GLA inh pH 4.5 9.
Screening CCCCOC(=O)c1nc(Cl)c(Cl)c(N)c1Cl returned Rango-impB inh 0.1%, Rango dissoc inh 1%, miR-21 FLuc -12% and GLA inh pH 4.5 6.
CCN(CC)c1ccc2cc(S(=O)(=O)c3ccc(Cl)cc3)c(=O)oc2c1 was read as Rango-impB inh inconclusive, Rango dissoc inh inconclusive, miR-21 FLuc -15% and GLA inh pH 4.5 -7.
Screening CC1CCN(S(=O)(=O)c2ccc(C(=O)Nc3nnc(C4=COCCO4)o3)cc2)CC1 returned Rango-impB inh 3.0%, Rango dissoc inh -18% and miR-21 FLuc 14%.
For COc1ccccc1NC(=S)N(Cc1cccnc1)Cc1ccco1 the results were Rango-impB inh -5.0%, Rango dissoc inh -20%, miR-21 FLuc -3% and GLA inh pH 4.5 -5.
For O=C(CN1C(=O)NC2(CCCC2)C1=O)N1CCN(c2ccc(C(F)(F)F)cc2[N+](=O)[O-])CC1 the results were Rango-impB inh 2.1% and Rango dissoc inh -19%.
Screening C=CCn1c(CCC(=O)O)ccc1-c1ccc(OC)cc1 returned Rango-impB inh inconclusive, Rango dissoc inh -21%, miR-21 FLuc -5% and GLA inh pH 4.5 -1.
`COc1ccc(OC)c(C2C(C(=O)Nc3cccnc3)=C(C)NC3=C2C(=O)CCC3)c1` (stereo unspecified) gave Rango-impB inh inconclusive, Rango dissoc inh -14%, miR-21 FLuc -7% and GLA inh pH 4.5 -1.
`Cc1ccccc1Nc1nc(N)nc(COC(=O)C2CCCCC2)n1` gave Rango-impB inh -0.4%, Rango dissoc inh 6%, miR-21 FLuc -25% and GLA inh pH 4.5 -7.
`CS(=O)(=O)c1ccc(Cl)c(C(=O)O)c1` gave Rango-impB inh -6.0%, Rango dissoc inh 20%, miR-21 FLuc -1% and GLA inh pH 4.5 -2.
CN1CCN(S(=O)(=O)c2ccc(NC(=S)NC(=O)C(C)(C)C)cc2)CC1 was read as Rango-impB inh -0.1%, Rango dissoc inh -2%, miR-21 FLuc 0% and GLA inh pH 4.5 3.
For C=CCn1c(C)cc(C(=O)CSc2nnc(C3CC3)n2C2CC2)c1C the results were Rango-impB inh 0.8% and Rango dissoc inh 1%.
For Cc1cc(NC(=O)CSc2nc(N)c(NC(=O)c3ccco3)c(=O)[nH]2)no1 the results were Rango-impB inh -0.1%, Rango dissoc inh -13%, miR-21 FLuc 1% and GLA inh pH 4.5 0.
O=C(/C=C/Nc1ccc(F)cc1F)c1cccs1 was read as Rango-impB inh inconclusive, Rango dissoc inh -28%, miR-21 FLuc 1% and GLA inh pH 4.5 -1.
For O=C1OCC2=C1C(c1ccc(F)cc1)c1cc3c(cc1N2)OCCO3 (stereo unspecified) the results were Rango-impB inh -4.0%, Rango dissoc inh -9%, miR-21 FLuc 27% and GLA inh pH 4.5 27.
For CCN(C(=O)CSc1nc(-c2ccccc2)cn1N)c1c(N)n(Cc2ccccc2)c(=O)[nH]c1=O the results were Rango-impB inh 0.2% and Rango dissoc inh -9%.
Screening C=CCOC(=O)CCC(=O)Nc1cccc2ccccc12 returned Rango-impB inh 0.2%, Rango dissoc inh 1%, miR-21 FLuc -14% and GLA inh pH 4.5 2.
For COc1ccc(/C=N/NC(=O)c2ccccc2OCc2ccccc2)c(OC)c1 the results were Rango-impB inh -2.7%, Rango dissoc inh -8%, miR-21 FLuc 0% and GLA inh pH 4.5 -13.
Screening O=C(NCCN1CCOCC1)c1cc(-c2ccco2)on1 returned Rango-impB inh -1.8%, Rango dissoc inh 2%, miR-21 FLuc -49% and GLA inh pH 4.5 5.
For CCOc1ccc(C2C(C(=O)OC)=CN(C(C)c3ccccc3)C=C2C(=O)OC)cc1 (stereo unspecified) the results were Rango-impB inh inconclusive, Rango dissoc inh -24% and miR-21 FLuc 6%.
`COc1cc(C(=O)Nc2scc(-c3ccc(C)cc3)c2C(=O)O)cc(OC)c1OC` gave Rango-impB inh 4.4%, Rango dissoc inh -6% and miR-21 FLuc 6%.
`Cc1ccc(N2C=Nc3ccc(C)c4nc(C)cc2c34)cc1` gave Rango-impB inh inconclusive, Rango dissoc inh inconclusive, miR-21 FLuc -3% and GLA inh pH 4.5 2.
O=C1C2CCCN2C(c2ccccc2F)N1c1cccc(Cl)c1 (stereo unspecified) was read as Rango-impB inh 2.7%, Rango dissoc inh 6%, miR-21 FLuc -8% and GLA inh pH 4.5 1.
`NC(=O)c1ccc[n+](CC(=O)c2ccc(F)cc2)c1` gave Rango-impB inh -0.7%, Rango dissoc inh -2%, miR-21 FLuc -1% and GLA inh pH 4.5 -3.
Clc1nc(N2CCOCC2)ncc1Br was read as Rango-impB inh -0.4%, Rango dissoc inh 0%, miR-21 FLuc -15% and GLA inh pH 4.5 1.
`Cc1nn(C)cc1CNC(=O)Nc1ccc(Br)cc1Cl` gave Rango-impB inh 6.2%, Rango dissoc inh -3%, miR-21 FLuc -11% and GLA inh pH 4.5 -7.
CCOc1ccc(CNC(=O)C(C)n2ccc3cc(S(=O)(=O)N4CCCC4)ccc32)cc1 (stereo unspecified) was read as Rango-impB inh -0.3%, Rango dissoc inh 1% and miR-21 FLuc 15%.
`O=C(CCCn1c(=O)oc2ccccc21)Nc1ccccc1` gave Rango-impB inh 0.2% and Rango dissoc inh 5%.
`COc1ccccc1-n1ccnc(SCC(=O)NC2CCCC2)c1=O` gave Rango-impB inh -0.7% and Rango dissoc inh 13%.
For N/C(=N\c1nc2ccccc2o1)NC(=O)c1ccc([N+](=O)[O-])cc1 the results were Rango-impB inh 0.8%, Rango dissoc inh 10%, miR-21 FLuc -7% and GLA inh pH 4.5 3.
Screening COc1ccc(S(=O)(=O)N2CCCC2CNC(=O)C(=O)NCc2ccccn2)cc1 (stereo unspecified) returned Rango-impB inh 0.4% and Rango dissoc inh 26%.
`CC(CCc1ccccc1)NC(=O)c1ccccc1Cl` (stereo unspecified) gave Rango-impB inh 0.0%, Rango dissoc inh 14% and miR-21 FLuc -6%.
`COc1ccccc1-c1cc(=O)c2c(O)ccc([N+](=O)[O-])c2o1` gave Rango-impB inh -0.5%, Rango dissoc inh 0%, miR-21 FLuc -1% and GLA inh pH 4.5 -1.
Screening COC(=O)[C@@]1(Cc2ccc(OC)cc2)[C@H]2c3cc(C(=O)N4CCCC4)n(CCn4cc([N+](=O)[O-])nc4C)c3C[C@H]2CN1C(=O)c1ccccc1 returned Rango-impB inh 2.7%, Rango dissoc inh 2%, miR-21 FLuc -2% and GLA inh pH 4.5 3&-5.
For CCN(CC)CCN(Cc1cc2cc3c(cc2[nH]c1=O)OCO3)C(=S)NCCCOC the results were Rango-impB inh inconclusive, Rango dissoc inh -12% and miR-21 FLuc -2%.
For c1ccc2c3c([nH]c2c1)-c1[nH]ncc1CC3 the results were Rango-impB inh inconclusive, Rango dissoc inh 9%, miR-21 FLuc -19% and GLA inh pH 4.5 -5.
For O=C(/C=C/c1ccc2c(c1)OCO2)c1cccnc1 the results were Rango-impB inh 1.4%, Rango dissoc inh -7% and miR-21 FLuc 2%.
CCOC(=O)C1CCN(C(=O)COc2ccc(Cl)cc2Cl)CC1 was read as Rango-impB inh 0.9%, Rango dissoc inh -2%, miR-21 FLuc 6% and GLA inh pH 4.5 1.
`O=C(Cn1nnc2c(cnn2-c2ccc(F)cc2)c1=O)Nc1ccccc1C(F)(F)F` gave Rango-impB inh 4.4%, Rango dissoc inh -3%, miR-21 FLuc 0% and GLA inh pH 4.5 5.
Screening CC1(C)c2[nH]c3ccccc3c2C[C@H]2C(=O)N(Cc3ccccc3)C(=O)N21 returned Rango-impB inh 2.3% and Rango dissoc inh -22%.
For CC12CCC(C(=O)N(CSC(=S)N/N=C\c3ccccc3)C1=O)C2(C)C (stereo unspecified) the results were Rango-impB inh 1.9%, Rango dissoc inh -5%, miR-21 FLuc -10% and GLA inh pH 4.5 -16.
For Cc1oc(S(=O)(=O)N2CCCCC2)cc1NC(=O)Nc1ccc(Cl)cc1 the results were Rango-impB inh -3.1%, Rango dissoc inh 11%, miR-21 FLuc 20% and GLA inh pH 4.5 -1.
Screening CC1CCCN(C(=O)c2ccc(OC3CCN(CCc4ccccc4)CC3)cc2)C1 (stereo unspecified) returned Rango-impB inh -3.4%, Rango dissoc inh 3% and miR-21 FLuc 2%.
For Cc1nccc2oc(=O)c(NC(=O)c3ccc(Cl)cc3)cc12 the results were Rango-impB inh -2.0%, Rango dissoc inh -3%, miR-21 FLuc 4% and GLA inh pH 4.5 5.
CSCC[C@H](NC(=O)N1CCn2c1nc1ccccc12)C(=O)NCC1CCCO1 (stereo partly specified) was read as Rango-impB inh -1.7%, Rango dissoc inh -3% and miR-21 FLuc -3%.
For CCOc1ccc(Cl)cc1CSc1n[nH]c(C)n1 the results were Rango-impB inh 2.1%, Rango dissoc inh -10%, miR-21 FLuc -6% and GLA inh pH 4.5 -17.
Cc1cc(C)n2nc(N)c(N=Nc3ccccc3)c2n1 was read as Rango-impB inh -0.8%, Rango dissoc inh -6%, miR-21 FLuc -35% and GLA inh pH 4.5 -5.
`O=C(CCN1C(=O)c2ccccc2C1=O)NCc1ccccc1` gave Rango-impB inh 2.3%, Rango dissoc inh 7% and miR-21 FLuc -5%.
Screening CCCCn1c(N)c(N(CCOC)C(=O)c2ccc(C)o2)c(=O)[nH]c1=O returned Rango-impB inh -1.8% and Rango dissoc inh -5%.
`Cc1ccc(C(C(=O)NCc2ccccc2)N(Cc2ccco2)C(=O)c2snc(C(N)=O)c2N)o1` (stereo unspecified) gave Rango-impB inh 2.4%, Rango dissoc inh -1% and miR-21 FLuc inconclusive.
CCOc1ccc(S(=O)(=O)Nc2ccc(C(=O)N3CCCC3)cc2)cc1 was read as Rango-impB inh 1.1%, Rango dissoc inh -11% and miR-21 FLuc -1%.
`CCN(CC)CCn1c(=N)n(CC(=O)c2ccc(C)cc2)c2ccccc21` gave Rango-impB inh 0.4%, Rango dissoc inh 0% and miR-21 FLuc -23%.

Five entries drawn at random from those above:
For O=C1OCC2=C1C(c1ccc(F)cc1)c1cc3c(cc1N2)OCCO3 (stereo unspecified) the results were Rango-impB inh -4.0%, Rango dissoc inh -9%, miR-21 FLuc 27% and GLA inh pH 4.5 27.
CSCC[C@H](NC(=O)N1CCn2c1nc1ccccc12)C(=O)NCC1CCCO1 (stereo partly specified) was read as Rango-impB inh -1.7%, Rango dissoc inh -3% and miR-21 FLuc -3%.
Screening C=CCn1c(CCC(=O)O)ccc1-c1ccc(OC)cc1 returned Rango-impB inh inconclusive, Rango dissoc inh -21%, miR-21 FLuc -5% and GLA inh pH 4.5 -1.
`CS(=O)(=O)c1ccc(Cl)c(C(=O)O)c1` gave Rango-impB inh -6.0%, Rango dissoc inh 20%, miR-21 FLuc -1% and GLA inh pH 4.5 -2.
`O=C(CCCn1c(=O)oc2ccccc21)Nc1ccccc1` gave Rango-impB inh 0.2% and Rango dissoc inh 5%.
